E coli growth = E. coli growth inhibition, primary screen, OD600 | OD600 absorbance (test concentration not listed) | Escherichia coli growth, 23 h; active compounds read low | 330,000 tested, 0.21% active;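 active means OD600 absorbance below the run mean of sample wells minus 3.6 SD, in any replicate, cut at about 0.56 in these data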;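 further: stock transfer was 300 nL into about 60 µL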
LANA-H2A inh = blockers of LANA interaction with H2A/H2B – biochemical, FP readout, HTS, primary screen. inhibition, % (no concentration beside the values). cell-free LANA-H2A/H2B peptide, fluorescence polarization. AID 2629, 2010. Protein LANA1 (Human herpesvirus 8 type P (isolate GK18)), Q9QR71. 320,000 tested, 0.6% active; in the data active means inhibition mostly above about 10%, no sharp cut-off; inactive means mostly below about 6.7%;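 further: stock transfer was 7.5 nL into about 10 µL; 0% = median of vehicle wells and 100% = median of positive control wells; one replicate is shown; the record names a cut of 25% in any replicate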
HNF4A DNA FP = change in binding of human HNF4A to DNA, primary screen, biochemical, fluorescence polarization, FITC-DNA; 360,000 tested, 0.3% active; 1 h; AID 1224865, 2016; Hepatocyte nuclear factor 4-alpha (Homo sapiens), P41235; activity change, % at 10 µM; in the data active means activity change above about 30%, passing the limit was not always enough;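 further: controls were the assay level and a saturating level of protein; the project sought stronger binding though the title names inhibitors; some compounds called inactive have numbers as strong as hits; positive values seem to mean higher polarization but the record does not say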
Beta2AR agonist = beta2AR agonists driving receptor internalization, primary screen, cell-based, FAP fluorogen, flow cytometry | AID 504454, 2011 | 340,000 tested, 0.43% active | response, % (concentration not given with the values) | Beta-2 adrenergic receptor (Homo sapiens), P07550 | Am2.2-beta2AR cells; reference of the scale not given here;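 active means response above a set limit, near 3 SD of response in nonfluorescent compounds, cut at about 42% in these data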;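 further: stock transfer was 100 nL into about 11 µL; a reference agonist was the positive control; negative values mostly stem from fluorescent compounds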
Target sequence (P07550 whole entry, looked up): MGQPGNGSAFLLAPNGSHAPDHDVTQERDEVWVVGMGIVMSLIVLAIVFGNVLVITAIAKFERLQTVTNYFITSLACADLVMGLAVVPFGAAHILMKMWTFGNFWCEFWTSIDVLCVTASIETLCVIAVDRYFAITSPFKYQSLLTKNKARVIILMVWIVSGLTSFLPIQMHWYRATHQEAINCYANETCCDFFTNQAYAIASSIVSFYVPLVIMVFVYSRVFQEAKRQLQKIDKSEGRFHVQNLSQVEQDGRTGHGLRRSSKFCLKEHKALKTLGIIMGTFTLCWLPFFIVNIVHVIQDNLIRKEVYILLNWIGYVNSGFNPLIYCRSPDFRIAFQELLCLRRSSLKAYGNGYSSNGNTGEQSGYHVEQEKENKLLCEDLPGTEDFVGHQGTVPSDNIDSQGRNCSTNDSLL
Vif TR-FRET = inhibitors of Vif binding to APOBEC3G peptide, primary screen, biochemical, TR-FRET, GST-Vif 1-94, biotin-A3G peptide, dose response retest (AID 1117319). Virion infectivity factor (Human immunodeficiency virus type 1 group M subtype B (isolate …. TR-FRET GST-Vif / biotin-A3G peptide binding; higher % means a stronger effect; test concentration not given here; strong numbers were not always called active. inhibition, %; hits with a dose series show IC50 in µM. 260,000 tested, 0.57% active;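 active means above the screen mean plus three standard deviations and confirmed in dose response; inconclusive means results disagree or hit not tested in dose response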;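 further: Vif residues 1-94 fused to GST binding biotinylated APOBEC3G peptide 110-148; 0% = full assay without inhibitor and 100% = GST in place of GST-Vif; retest series ran down from 100 µM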
UCH37 inh = inhibitors of human UCH37 deubiquitinase, primary screen, biochemical, Ub-AMC cleavage, fluorescence; AID 588478, 2011; Ubiquitin carboxyl-terminal hydrolase isozyme L5 (Homo sapiens), Q9Y5K5; 330,000 tested, 0.33% active; inhibition, % (test concentration not listed); purified proteasome/UCH37;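 active means mean of two replicates above 20%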;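 further: 0% = compound-free wells with enzyme and 100% = wells lacking proteasome; stock transfer was 100 nL into about 20 µL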
Target sequence (Q9Y5K5 whole entry, looked up): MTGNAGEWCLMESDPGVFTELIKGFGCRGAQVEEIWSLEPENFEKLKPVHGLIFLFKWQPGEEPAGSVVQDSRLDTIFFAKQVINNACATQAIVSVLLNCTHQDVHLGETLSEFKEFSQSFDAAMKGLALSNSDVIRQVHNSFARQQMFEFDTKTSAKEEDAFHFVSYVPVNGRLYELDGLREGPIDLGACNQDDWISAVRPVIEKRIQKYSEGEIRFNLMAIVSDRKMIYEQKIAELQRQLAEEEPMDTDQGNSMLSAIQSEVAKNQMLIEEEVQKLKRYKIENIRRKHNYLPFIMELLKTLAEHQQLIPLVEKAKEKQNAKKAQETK
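System: Proteasome-associated human UCH37 deubiquitinase; Input: 0.15 nM proteasome in added enzyme buffer; Also added: Ub-AMC substrate from 1 µM stock; Incubation: 30 min compound-proteasome preincubation then 25 min substrate reaction, room temperature; Detection: fluorescence, ex 355 nm, em 460 nm; Read-out: % inhibition of Ub-AMC cleavage fluorescence; Benchmarks: no-proteasome and no-compound wells.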
A1 inh = caspase 3/7 activation in MEF A1-2A-BIM cells, primary screen, A1 inhibitor project, cell-based, luminescence, HTS; 330,000 tested, 0.066% active; AID 2462, 2010; Caspase-Glo 3/7 luminescence, 3 h; percent of clofoctol response, vehicle zero; caspase activation, % (test concentration not listed);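 active means over half of replicate activation scores above 10%, or exactly half above 10 with the replicate mean above 10; inconclusive means replicate mean below 10 yet half the replicates above 10; inactive means over half of replicates below 10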;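 further: wells of about 30 µL received 50 nL stock; many hits fall short of the cut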
Numbers without * were called inactive; i = inactive; ? = inconclusive; · = not tested or not shown.

SMILES	E coli growth	LANA-H2A inh	HNF4A DNA FP	Beta2AR agonist	Vif TR-FRET	UCH37 inh	A1 inh
O=C(NC1CCOCC1)C1CCC(=O)N(CCc2cccc(F)c2)C1 (stereo not given)	0.681	1.2	-0.2	0.8	8.2%	-4.0	0.0
O=C(COc1ccccc1Cl)Nc1cccc(S(=O)(=O)N2CCCC2)c1	0.659	4.8	3.6	2.6	-2.3%	0.8	-0.9
O=C1NC(c2ccc(Cl)cc2)Nc2ccccc21 (stereo not given)	0.662	-0.7	3.1	-1.2	·	-23.7	0.7
CC(Oc1ccc(F)cc1)C(=O)Nc1ccccc1N1CCCCC1 (stereo not given)	0.699	4.0	1.0	8.9	·	-0.2	0.1
O=[N+]([O-])c1cc(F)c2cccnc2c1O	0.0825*	-8.5	-0.3	1.9	18.9%	29.1*	-0.6
O=C(c1cc(COc2c(F)cccc2F)on1)N1CCC(c2ccccc2F)C1 (stereo not given)	0.663	0.9	2.5	4.8	·	4.1	1.1
O=C(Nc1ccccc1)Oc1cccc2cccnc12	0.575	·	5.0	-2.9	2.8%	2.9	·
O=C(c1ccc(COCC(F)(F)F)cc1)N1CCN(c2ccccn2)CC1	0.673	0.4	-1.3	-7.4	-4.1%	3.9	0.5
CCC1(C)CC(CC(=O)O)(c2ccccc2OC)CCO1 (stereo not given)	0.773	6.3	2.2	2.3	1.2%	3.1	1.9
CCOc1ccc(C(C)NC(=O)C2CCN(S(=O)(=O)c3ccc(OC)cc3)CC2)cc1OCC (stereo not given)	0.721	·	-0.7	-0.6	·	0.8	·
COC(=O)c1ccncc1C(=O)Nc1ccc(Oc2ncc(C(F)(F)F)cc2Cl)cc1	·	3.0	-1.0	-2.2	·	·	-0.2
Cc1cc(C)nc(SCc2ccc(C(=O)N/N=C/C3CCCCC3)cc2)n1	·	-1.5	1.0	-16.1	·	·	-0.9
O=C(NCC1CCCO1)c1ccc2c(=O)n(-c3ccc(F)cc3)c(=S)[nH]c2c1 (stereo not given)	0.704	1.4	1.6	-3.2	13.2%	6.5	0.4
COC(=O)c1ccc(CN(C)S(=O)(=O)c2cccs2)cc1	0.696	1.2	1.8	1.2	·	2.4	0.4
CC(CCc1ccccc1)NC(=S)NC1CCCCC1 (stereo not given)	0.669	-2.9	3.7	-3.4	-5.0%	3.7	0.8
COc1ccc(/C=C2\CCc3ccccc3C2=O)cc1O	0.642	-1.7	-4.3	19.7	·	4.7	-8.1
N/C(=N\OC(=O)CCn1cccc(C(F)(F)F)c1=O)c1ccc(OC(F)(F)F)cc1	0.673	-3.5	-0.6	-6.3	?	5.5	0.6
CCN(CC)C1=C(Cl)C(=O)C(Cl)C12OCCO2 (stereo not given)	0.666	12.4*	-0.8	-4.4	·	2.1	1.1
COc1ccc(NC(=O)c2cccc3cccnc23)cc1S(N)(=O)=O	0.665	-2.6	4.1	1.7	·	-0.2	-0.7
CCOC(=O)N1CCC(NC(=O)CCC(=O)N2CCOc3ccc(C)cc32)CC1	0.692	0.7	0.2	-6.9	5.7%	5.3	0.1
O=C(c1ccc(F)cc1)N1CCN(c2cc(N3CCCCC3)c(F)cc2[N+](=O)[O-])CC1	0.642	0.3	-2.5	-15.8	-4.7%	3.5	-1.3
CCN1C(=O)C(CC(=O)Nc2ccc(F)cc2)N(CCCN2CCN(c3ccc(F)cc3)CC2)C1=S (stereo not given)	0.684	i	0.1	7.5	-5.6%	5.4	0.2
O=C(Oc1c(-c2ccco2)oc2ccccc2c1=O)c1cccnc1	0.692	-4.2	1.4	0.9	-7.1%	-42.6	-0.8
C=C1C(C(=O)Nc2ccccc2)C1C(=O)Nc1ccccc1 (stereo not given)	0.68	-2.8	-0.4	-3.0	-3.0%	1.5	0.2
C=C1CCC[C@]2(C)C[C@H]3OC(=O)C(CNCCN(CC)CC)[C@H]3CC12 (stereo not given in full)	0.657	-8.6	5.7	-1.7	·	6.4	1.0

The list goes on.
SMILES	E coli growth	LANA-H2A inh	HNF4A DNA FP	Beta2AR agonist	Vif TR-FRET	UCH37 inh	A1 inh
CCOC(=O)C(=NCC1CCCO1)NNc1ccccc1Cl (stereo not given)	0.679	-2.6	4.8	-1.6	·	3.6	0.1
CCN(CC)c1ccc(S(=O)(=O)N2CCOCC2)cc1NC(=O)COC(=O)/C=C/c1ccco1	0.7	·	-1.4	-4.5	·	2.3	·
Cn1ncc2c(Nc3ccc(-c4ccccc4)cc3)ncnc21	0.664	2.4	2.2	5.5	13.9%	-41.6	-0.2
C=CCNS(=O)(=O)c1cc(S(=O)(=O)NCC=C)c(OC)cc1OC	0.654	2.8	-1.1	1.4	21.3%	2.7	1.0
O=C1c2ccccc2C(=O)C12OC(c1ccccc1)C1(C(=O)c3ccccc3C1=O)C2c1ccc([N+](=O)[O-])cc1 (stereo not given)	0.7	-1.8	-4.4	-3.8	5.4%	4.0	-0.3
O=C(Nc1ccc(F)cc1)c1cccc(C(=O)Nc2ccc(F)cc2)c1	0.69	1.3	-0.9	3.7	-1.7%	1.6	-0.1
CC(=O)c1c(C)[nH]c(C(=O)COc2ccc3ccc(=O)oc3c2)c1C	0.653	0.8	-0.5	18.6	14.2%	-93.6	0.5
O=C1c2ccccc2CCC12N=NCC2c1ccccc1 (stereo not given)	0.677	-9.2	3.9	6.3	5.5%	3.7	0.5
c1ccc(SSc2ccccc2)cc1	·	-3.8	3.9	5.9	·	-0.9	-0.2
O=C(CSc1nnc2scc(-c3ccccc3)n12)c1ccc2c(c1)OCCO2	0.703	3.2	1.9	-7.6	-28.9%	3.7	-0.5
Cc1ccc(CCNC(=O)C2CCCN(S(=O)(=O)c3c(C)noc3/C=C/N(C)C)C2)cc1 (stereo not given)	·	3.1	2.0	4.5	>100µM*	1.0	-0.1
COc1ccc(CCNc2ccc(N3C(=O)CC(C)C3=O)cc2[N+](=O)[O-])cc1 (stereo not given)	0.685	2.8	-1.1	-6.3	32.1%	4.2	-0.2
CCOc1ccccc1-c1nc(CN2CCN(C(=O)c3ccco3)CC2)c(C)o1	0.687	1.5	-0.2	-10.8	-4.5%	4.2	0.4
Cc1ccc(S(=O)(=O)Nc2c(O)ccc3ccccc23)cc1	0.668	-4.2	12.2	-3.3	·	-4.4	1.0
Cc1ccc(C(C(=O)NC2CCCC2)N(Cc2ccc3c(c2)OCO3)C(=O)c2snc(C(N)=O)c2N)cc1 (stereo not given)	0.727	-1.8	-0.9	18.8	?	-25.9	1.4
COc1ccc(NC(=O)CCNS(=O)(=O)c2cc(Br)cnc2N)c(OC)c1	0.681	-1.8	-0.7	0.6	25.2%	1.2	1.3
C[C@H](CO)N1C[C@H](C)[C@@H](CN(C)S(=O)(=O)c2ccccc2)Oc2ccc(NS(=O)(=O)c3cccs3)cc2C1=O	0.723	4.0	5.8	-3.2	·	0.5	-0.1
Cc1cc(C)n2nc(C(=O)N/N=C/c3ccccc3C)nc2n1	·	-0.1	2.3	-9.4	1.9%	·	-0.5
COCCNC(=O)CN1CCC(NC(=O)c2ccco2)CC1	0.694	0.4	-2.6	6.8	·	4.2	0.4
Cc1cccc(C)c1NC(=O)COC(=O)Cc1ccsc1	0.756	5.1	-3.1	10.4	-1.6%	4.3	0.9
O=C(CC1Oc2ccccc2NC1=O)NC1CC1 (stereo not given)	0.748	0.3	-3.0	6.6	0.0%	0.2	0.4
COc1ccc(NC2CCCN(C(=O)CCCn3cncn3)C2)cc1OC (stereo not given)	0.704	0.3	2.7	-8.4	·	2.1	-1.3
CSc1ccccc1NC(=O)CN1c2ccccc2CC1C (stereo not given)	0.662	-2.9	3.3	-10.5	2.1%	1.3	-0.6
Cc1cccc(N2CC(c3nc4ccccc4[nH]3)CC2=O)c1 (stereo not given)	0.658	3.0	-1.0	3.7	10.5%	1.3	0.7
Cc1c(CC(=O)N[C@@H](C)C(=O)O)c(=O)oc2cc3oc4c(c3cc12)CCCC4	0.671	-1.2	-1.2	-6.1	·	-25.8	0.5

Later entries.
SMILES	E coli growth	LANA-H2A inh	HNF4A DNA FP	Beta2AR agonist	Vif TR-FRET	UCH37 inh	A1 inh
CCCc1nc(Nc2nc3ccccc3o2)nc(C)c1C(=O)OCC	0.632	-2.3	-1.0	-3.5	27.4%	-0.1	-2.8
O=C(N=C1c2ccccc2CN1c1ccccc1)c1cccc([N+](=O)[O-])c1	0.669	-0.9	2.0	0.0	18.4%	2.1	-2.6
C[C@H](CO)N1C[C@H](C)[C@@H](CN(C)Cc2ccc(Cl)c(Cl)c2)Oc2c(NC(=O)c3ccncc3)cccc2C1=O	·	2.2	-0.9	-7.4	·	1.5	-0.2
C=C(C)C(=O)Nc1cccc(C2=NOC3(C2)C[C@H](C(N)=O)N(C(=O)CC#N)C3)c1 (stereo not given in full)	·	-0.3	·	·	?	2.5	0.6
Cn1c(C(=O)N[C@@H](Cc2ccccc2)C(=O)NCCC(=O)O)cc2cc(Cl)ccc21	0.676	-3.9	11.3	10.5	2.4%	2.0	0.9
Cc1ccc(C)c(-c2cc(C(=O)NCc3cccs3)c3ccccc3n2)c1	0.769	-3.6	3.4	-1.2	5.4%	3.2	0.3
Cc1cccc(N2C(=O)N3[C@@H]4c5ccccc5OC[C@@H]4[C@@H](c4ccccc4)[C@@]3(C)C2=O)c1	0.772	3.9	1.0	-0.8	·	4.3	?
COc1ccc(-c2nn(C)c(=O)c3ccccc23)cc1CNC(=O)c1ccco1	0.751	-1.9	-1.7	-16.4	?	-3.1	-0.2
NC(=O)CC[C@H](NC(=O)c1ccc(F)cc1)C(=O)OCC(=O)Nc1c(F)c(F)c(F)c(F)c1F	0.67	-7.9	-0.2	3.2	-2.0%	1.7	0.2
CCN(CC)S(=O)(=O)c1ccc(S(=O)(=O)N2CCCC2C(=O)O)cc1 (stereo not given)	0.698	2.8	2.0	4.9	-0.4%	0.8	0.0
COCCn1c(Cc2ccccc2)nnc1SCC(=O)Nc1oc(C)c2c(C)n[nH]c(=O)c12	0.677	0.3	4.7	-8.4	5.7%	2.3	-0.6
O=C1NC(=O)C2(Br)Nc3ccc(Br)cc3C(=O)C2N1 (stereo not given)	0.647	·	-2.0	3.2	3.8%	1.7	·
COc1cc2c(C(=O)Nc3ccccc3F)cn(C)c(=O)c2cc1OC	0.698	-0.4	-0.3	4.7	-5.4%	4.4	0.6
CN=C(Nc1cccnc1)c1cccc(C(F)(F)F)c1	0.653	5.9	-2.7	1.5	·	4.4	1.4
Cc1[nH]c2ccccc2c1C(=O)COC(=O)C(C)C	0.7	-1.8	1.2	-21.9	-0.3%	0.4	-0.3
COc1cc(C(=O)Nc2cc(S(=O)(=O)N3CCOCC3)ccc2N2CCN(C)CC2)cc(OC)c1OC	0.639	·	-1.5	1.2	·	2.6	·
CN1CCN(CCCNC(=O)c2ccc(CSCc3cccc(Cl)c3)o2)CC1	0.758	1.6	·	·	?	-0.3	0.1
CCOC(=O)C1CCC/C1=N\NC(=O)CN(c1cc(OC)ccc1OC)S(=O)(=O)c1ccccc1 (stereo not given)	·	1.0	-0.9	-8.5	·	·	-1.2
O=C(CSc1nnc(-c2cccnc2)n1Cc1ccco1)c1ccccc1	0.669	-5.6	3.6	-25.5	15.9%	2.4	-0.2
